TRPML1 ag: human mucolipin-1 channel agonism; TRPML1-expressing cells, Ca2+ dye fluorescence, FDSS; host cell line not named in the record; reference of the full effect not given here; activation, % (test concentration not listed); 410,000 compounds, 0.12% hits; in the data active = activation above about 50%; inconclusive = about 30% to 50%; inactive = below about 30%; further: 0% is about no effect; the text of the record puts the active cut at 80%
Target sequence (Q9GZU1 whole entry, looked up): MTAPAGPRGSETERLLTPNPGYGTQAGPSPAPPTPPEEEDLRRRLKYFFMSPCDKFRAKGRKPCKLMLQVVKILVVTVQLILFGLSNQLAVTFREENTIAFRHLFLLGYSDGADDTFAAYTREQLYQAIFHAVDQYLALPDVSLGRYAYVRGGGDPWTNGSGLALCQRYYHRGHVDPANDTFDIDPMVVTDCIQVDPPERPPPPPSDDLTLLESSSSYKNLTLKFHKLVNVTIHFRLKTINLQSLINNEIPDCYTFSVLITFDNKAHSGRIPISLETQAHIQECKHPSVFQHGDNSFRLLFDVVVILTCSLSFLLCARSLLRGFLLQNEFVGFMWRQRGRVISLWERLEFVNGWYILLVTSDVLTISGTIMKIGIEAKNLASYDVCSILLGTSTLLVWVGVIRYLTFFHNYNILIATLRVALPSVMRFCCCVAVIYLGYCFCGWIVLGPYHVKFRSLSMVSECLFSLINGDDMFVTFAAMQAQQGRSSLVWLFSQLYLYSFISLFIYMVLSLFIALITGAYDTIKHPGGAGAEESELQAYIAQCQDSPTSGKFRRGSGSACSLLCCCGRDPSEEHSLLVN
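Calcium fluorescence on an FDSS kinetic reader gave the read-out. Tet-induced TRPML1-DL cells were plated overnight, dye-loaded (Ca8 with quencher, 45-90 min, room temperature, dark), then read 110 s after compound addition, and again 110 s after 4uM final 54-4 (EC80).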
ClpP mod: qHTS Assay for Activators of ClpP. ATP-dependent Clp protease proteolytic subunit (Bacillus subtilis (strain 168)), P80244. purified B. subtilis ClpP, FRET peptide cleavage, 20 min. Potency, µM (series often up to 57.5 µM), for inactives: top-dose activity change, negative = active. 340,000 compounds, 1.9% hits. AID 651965, 2013; active = well fitted falling curve with a large enough effect; inconclusive = small, poorly fitted or top-dose-only effect; inactive = no such curve, though single readings can be large or run the other way; further: potency means the concentration at half of the fitted maximal effect; the source files actives as falling curves though it sought activators and does not explain the sign; nearly all actives have a fitted effect of over 65% in size; many hits overshoot -100%
Target sequence (P80244 whole entry, looked up): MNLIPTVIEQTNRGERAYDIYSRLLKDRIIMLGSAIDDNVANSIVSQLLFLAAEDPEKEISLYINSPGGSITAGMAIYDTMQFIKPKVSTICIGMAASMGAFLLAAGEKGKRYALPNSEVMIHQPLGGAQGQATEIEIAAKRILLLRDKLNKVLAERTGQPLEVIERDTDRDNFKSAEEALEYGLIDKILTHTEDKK
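Buffer: 100 mM Tris/HCl pH8, 100 mM KCl, 0.05% low protease BSA, 2.5% glycerol, 0.01% Tween-20. ClpP 10 microg/mL final; 20 min RT; delta FRET normalized to ADEP and DMSO controls.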
gsp ag: gsp mutant agonism; gsp mutant cells, cAMP HTRF, 30 min; control for the full effect not named in the record; Potency, µM (series often up to 76.9 µM), for inactives: top-dose activation (cAMP increase), hits mostly activators; 340,000 compounds, 0.13% hits; active = well fitted activation curve with a large enough effect; inconclusive = small, poorly fitted or top-dose-only effect, or another doubt; inactive = no such curve, though single readings can be large or run the other way; cell line not stated here;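 further: phosphodiesterase inhibitor Ro 20-1724 added with compounds to block cAMP breakdown; potency means the concentration at half of the fitted maximal effect; nearly all actives have a fitted effect of over 60% in size; about a fifth of the inactives were tested at one dose only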
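Cells stably selected in G418 were plated at 2000/well, grown 16-24 hr, then given compounds in DMSO with the PDE inhibitor […] (300 uM solution added) for 30 min at 37C; cAMP was read by HTRF.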
TRPML1 blocker: inhibitors of human TRPML1 channel; Q9GZU1; TRPML1-inducible cells, Ca2+ dye fluorescence, FDSS; stronger effect = lower value; inhibition of EC80 agonist-evoked calcium signal; activity change, negative = inhibition, % (concentration not given with the values); 390,000 compounds, 0.02% hits; AID 624415; in the data active means activity change below about -50%; inconclusive means about -30% to -50%; inactive means above about -30%;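 further: stimulus is agonist 54-4 at its EC80 concentration; on the % scale 0 is the no-effect control and ±100 the full control effect; the text of the record puts the active cut at -80%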
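Tet-induced TRPML1-DL cells loaded with Ca8 no-wash calcium dye were read kinetically on FDSS. Compound addition was followed by EC80 agonist 54-4 (4 uM final); inhibition was read over 110 s.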
gsp antag: antagonists of gsp mutant (McCune-Albright syndrome). Potency, µM (titrated, usually from 76.9 µM), inactives show top-dose activity change, negative = inhibition, hits mostly inhibitors. 340,000 compounds, 0.4% hits. gsp-mutant cells, cAMP HTRF, 30 min; control for the full effect not named in the record; active = falling curve of any shape with a large fitted effect; inconclusive = falling curve, mostly with a smaller effect; inactive = flat or rising curve; cell line not stated here;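 further: intracellular cAMP measured with PDE inhibitor Ro 20-1724 present during compound exposure; potency means the concentration at half of the fitted maximal effect; on the % scale 0 is the no-effect control and ±100 the full control effect; nearly all actives have a fitted effect of over 65% in size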
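HTRF cAMP measurement after 30 min RT detection following 30 min, 37C compound treatment alongside […] (added as 300 uM solution) in G418-selected cells seeded at 2000/well and grown 16–24 h.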
Menin-MLL FL inh: menin-MLL binding inhibition, fluorescein peptide; Fluorescence polarization, fluorescein-MLL peptide displacement from menin; 290,000 tested, under 10 active; FP activity change, % at 61.4 µM; inconclusive = falling polarisation curve, or a change in total fluorescence; inactive = total fluorescence flat and polarisation flat or rising; no compound was filed as active; the % refers to the polarisation; negative = inhibition;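 further: % of control where 0% means no effect; inhibitors lower the polarisation; unlabelled MLL peptide was the positive control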
Starred values were filed as active, the others as inactive; ? = inconclusive; . = no result given; & = joins results of further samples; [ ] = dose if it differs, or a comment.

(1) COc1cccc(-c2nc(CS(=O)(=O)CC(=O)N3CCN(C4CCCCC4)CC3)c(C)o2)c1
(2) CCc1ccc(Nc2nnc(SCC(=O)Nc3ccc(C(=O)O)cc3)s2)cc1
(3) Cn1nnnc1SCC1=C(C(=O)O)N2C(=O)[C@@H](NC(=O)[C@H](O)c3ccccc3)[C@H]2SC1
(4) Cc1noc(C)c1S(=O)(=O)N(C)C[C@H]1OCc2cnnn2CCCC(=O)N([C@H](C)CO)C[C@H]1C
(5) CN(CCc1ccccn1)C(=S)Nc1ccc(Cl)c(Cl)c1
(6) COc1ccc(NC(=O)CN(C)C(=O)COc2ccccc2Cc2ccccc2)cc1
(7) CN(CCN1CCc2ccccc2C1)Cc1nc(Cc2ccccc2F)no1
(8) O=C(NC(=S)Nc1nc2c(ccc3ccccc32)s1)c1cccs1
assay / entry,1,2,3,4,5,6,7,8
TRPML1 ag,0.4,0.7,-0.5,-0.1,0.9,2.1,0.7,4.3
ClpP mod,-5.3%,-1.5%,-5.8%,1.6%,.,-0.4%,.,1.4%
gsp ag,-32%[inhibitor],0%,.,?,18%[15.4 µM],-19%,3%[15.4 µM],-19%
TRPML1 blocker,-15,1,-14,-6,-8,-2,17,55
gsp antag,-2%,7%,-2%,.,-1%,?,8%,-12%
Menin-MLL FL inh,-1.2,-1.4,7.9,.,-3.1,.,-1.6,16

(9) Cc1ccc(NS(=O)(=O)c2cc(C(=O)N3CCOCC3)ccc2C)cc1
(10) CC1CCN(S(=O)(=O)c2ccc3[nH]ccc3c2)CC1
(11) COC(=O)c1cc(OC)c(OC)cc1-n1cnc2cc(OC)c(OC)cc2c1=O
(12) CCOc1cc(S(=O)(=O)Nc2ccc(Cl)cn2)ccc1F
(13) Cc1nc2[nH]c(=S)n(C)c(=O)c2nc1C
(14) COc1ccc(OC)c(CNC(=O)Cc2ccc(NC(=O)N3CCSc4ncccc43)cc2)c1
(15) Cn1nc([N+](=O)[O-])nc1N1CCN(c2ccc(F)cc2)CC1
(16) COc1ccc(NC(=O)CSc2ccc(-c3ccco3)nn2)c(OC)c1
assay / entry,9,10,11,12,13,14,15,16
TRPML1 ag,-0.4,1.7,1.0,0.8,1.3,1.6,1.7,1.2
ClpP mod,1.4%,-2.7%,-1.6%,-2.9%,-4.0%,?,-0.4%,-4.4%
gsp ag,-28%,.,-21%,11%,-26%,.,-29%,56%
TRPML1 blocker,-6,-12,1,-5,23,-3,-6,-16
gsp antag,2%,.,10%,0%,14%,.,12%,-9%
Menin-MLL FL inh,-4.0,.,-0.5,1.1,0.6,.,2.9,.

(17) CN(C)c1cccc(C(=O)OCC(=O)Nc2nccs2)c1
(18) COc1c(N)c2c(c([N+](=O)[O-])c1OC)C(=O)OC2
(19) CC(NC(=O)N1CCOCC1)c1ccccc1 (stereo not drawn)
(20) Cc1ccc(C2(C)NC(=O)N(CC(=O)Nc3cc(S(=O)(=O)N4CCOCC4)ccc3OC(C)C)C2=O)cc1 (stereo not drawn)
(21) Cc1ccc(C(O)P(=O)(OC(C)C)c2ccc(N(C)C)cc2)cc1 (stereo not drawn)
(22) CCn1ncc(Br)c1C(=O)Nc1cc(C(=O)OC)ccc1C(=O)OC
(23) Cc1cc(C)nc(SCC(=O)Nc2cccc(S(=O)(=O)N(C)C)c2)n1
(24) O=C(NCCN1CCN(C(=O)Nc2ccccc2)CC1)Nc1ccccc1
assay / entry,17,18,19,20,21,22,23,24
TRPML1 ag,-0.5,0.2,-0.1,0.1,0.6,-1.2,-0.7,0.1
ClpP mod,-4.9%,-3.0%,-0.9%,-0.5%,.,-9.8%,.,0.1%
gsp ag,-12%,0%[15.4 µM],-1%,-17%,-3%[15.4 µM],-52%[inhibitor],25%[15.4 µM],-7%
TRPML1 blocker,5,-2,19,6,0,-3,4,0
gsp antag,0%,-7%,4%,-25%,0%,37%[activator],-55%,-4%
Menin-MLL FL inh,1.4,.,-6.7,.,-6.0,0.2,0.2,2.6

Only TRPML1 ag and ClpP mod (4 entries from above):
cpd | mol | TRPML1 ag | ClpP mod
19 | CC(NC(=O)N1CCOCC1)c1ccccc1 (stereo not drawn) | -0.1 | -0.9%
20 | Cc1ccc(C2(C)NC(=O)N(CC(=O)Nc3cc(S(=O)(=O)N4CCOCC4)ccc3OC(C)C)C2=O)cc1 (stereo not drawn) | 0.1 | -0.5%
21 | Cc1ccc(C(O)P(=O)(OC(C)C)c2ccc(N(C)C)cc2)cc1 (stereo not drawn) | 0.6 | .
22 | CCn1ncc(Br)c1C(=O)Nc1cc(C(=O)OC)ccc1C(=O)OC | -1.2 | -9.8%

Additional compounds follow:
(25) CCOC(=O)COc1ccc2c(c1)C(=O)CC(C)(c1cccnc1)O2 (stereo not drawn)
(26) CCOc1ccc(-n2c(=O)c3c(C)c(C)sc3n(CC(=O)C(C)(C)C)c2=O)cc1
(27) O=C1CC(N2CCN(c3ccc(C(=O)c4ccc(F)cc4)cc3)CC2)C(=O)N1 (stereo not drawn)
(28) CC(C)CC(=O)Nc1nnc(S(=O)(=O)N(C)Cc2ccco2)s1
(29) Cc1cc(C)c(NC(=O)CSc2ccc(-c3sc(-c4ccccc4)nc3C)nn2)c(C)c1
(30) CCC(C)Sc1cc(-c2nc3ccc(Cl)cn3c2NC2CCCCC2)ccc1OC (stereo not drawn)
(31) COc1ccc(OCC(=O)NCC(c2ccc(Cl)cc2)N2CCCCC2)cc1 (stereo not drawn)
(32) COC(=O)c1sc(C(=O)OC)c(C(=O)OC)c1C(=O)OC
assay / entry,25,26,27,28,29,30,31,32
TRPML1 ag,-0.2,6.0,1.0,3.6,0.1,-0.8&0.6,-0.8,0.0
ClpP mod,28µM*,-0.5%,-1.0%,-3.6%,-1.8%,?,2.2%,?
gsp ag,6%,.,?,-22%,.,8%,.,22%
TRPML1 blocker,-4,17,15,0,-7,-8,5,3
gsp antag,?,.,-5%,5%,.,3%,.,8%
Menin-MLL FL inh,-2.4,.,1.8,.,.,.,.,-1.0

(33) Cc1ccccc1NC(=O)/C(=C/c1ccccc1)c1ccccc1
(34) O=C(Nc1ccc(-n2ccnc2P(=O)(O)c2ccccc2)cc1)c1ccccc1Cl
(35) Cc1ccc(NC(=O)Nc2nnc(SCC(=O)N3CCC(C)CC3)s2)cc1
(36) CSc1ccccc1NC(=O)C1=CC(c2ccc(C)cc2)=NS(=O)(=O)N1C
(37) Cc1cc(Cl)ccc1OCCCC(=O)Nc1cc(S(=O)(=O)N2CCOCC2)ccc1N1CCOCC1
(38) COc1cc2c3c(c1)C1(C(=O)N3C(C)(C)C=C2C)C(C#N)=C(N)Oc2cc(C)oc(=O)c21 (stereo not drawn)
(39) COc1cccc(CC2(CO)CCN(Cc3cnc(-c4cccc(C)c4)nc3)CC2)c1
(40) COc1ccc(NC(=S)N2CCC(N(C)CCN3CCOCC3)CC2)cc1
assay / entry,33,34,35,36,37,38,39,40
TRPML1 ag,1.6,-0.5,-0.3,1.2,0.7,-0.4,0.0,0.4
ClpP mod,-0.2%,0.5%,-0.3%,1.0%,-17%,-2.1%,.,-1.5%
gsp ag,-32%[inhibitor],?,.,11%,7%,-17%,15%,-27%
TRPML1 blocker,8,7,-15,7,-4,-7,-9,-18
gsp antag,-12%,-14%,.,-10%,-2%,1%,-18%,10%
Menin-MLL FL inh,2.2,-0.7,.,-5.7,.,-0.9,-0.1,1.3

(41) CCOC(=O)C1CCN(CC(=O)Nc2ccc(OC)c(Cl)c2)CC1
(42) c1ccc(-c2nc3ccccc3[nH]2)nc1
(43) CCCn1c(SCC(=O)NCCc2ccc(OC)c(OC)c2)nc2c1c(=O)n(C)c(=O)n2C
(44) C[C@H](CO)N1C[C@H](C)[C@@H](CN(C)S(=O)(=O)c2ccccc2)Oc2c(NC(=O)NC3CCCCC3)cccc2C1=O
(45) CCOC(=O)c1sc(NC(=O)C2c3ccccc3Oc3ccccc32)c(C(=O)OCC)c1C
(46) CC1CCN(c2nc(N3CCCCC3)nc(N3CCCCC3)n2)CC1
(47) C=CCn1cc(C(=O)N2CCc3ccccc3C2)c(=O)c2cc(S(=O)(=O)N(CC)CC)ccc21
(48) COC1OCC(O)C(NC(=O)N(C)N=O)C1O (stereo not drawn)
assay / entry,41,42,43,44,45,46,47,48
TRPML1 ag,-1.3,-0.5,0.7,-0.3,0.0,0.7,-0.2,0.0
ClpP mod,.,?,-2.3%,-2.7%,-18%,-0.9%,0.5%,0.0%
gsp ag,-5%[15.4 µM],0%,-53%[inhibitor],-11%,.,-90%[inhibitor],17%[15.4 µM],-34%
TRPML1 blocker,9,-10,-6,-11,-25,-4,-13,-2
gsp antag,10%,3%,-22%,-5%,.,3%,-11%,.
Menin-MLL FL inh,-2.1,2.1,0.7,.,.,1.3,1.8,.

(49) O=C(CSc1nc2c(c(=O)n1-c1ccccc1)SCC2)NCC1CCCO1 (stereo not drawn)
(50) COC(=O)c1cc(Br)c(N)cc1OC
(51) CCOc1ccccc1NC(=O)c1sc2nc3n(c(=O)c2c1C)CCCCC3
(52) Cc1nc(NCC2CCCO2)c2nnn(Cc3ccccc3Cl)c2n1 (stereo not drawn)
(53) O=C(Nc1ccccc1NC(=O)c1ccco1)c1ccccc1
(54) O=C(Nc1cc(C(F)(F)F)ccc1N1CCOCC1)c1cccnc1
(55) Cc1ccc(-c2c[n+](CC(=O)Nc3ccccc3C)c3n2CCC3)cc1
assay / entry,49,50,51,52,53,54,55
TRPML1 ag,0.1,0.2,0.3,0.6,0.4,0.6,0.4
ClpP mod,.,0.3%,-2.6%,-3.9%,.,1.7%,-5.0%
gsp ag,28%,11%,.,4%,-8%[15.4 µM],10%,-1%[15.4 µM]
TRPML1 blocker,-1,1,12,-5,21,-6,-2
gsp antag,5%,14%,.,-11%,4%,0%,-11%
Menin-MLL FL inh,2.2,1.1,.,1.4,0.7,-1.7,-2.1

High-throughput results: PubChem, National Center for Advancing Translational Sciences (NCATS)

Not a hit list, and some 2.1% of all compounds hit somewhere here.
